# Screening results as filed in PubChem.
# Mtb betalactam = beta-lactam sensitization of Mtb H37Rv. M. tuberculosis H37Rv growth with meropenem, percent inhibition; hits of this screen are not shown here. inhibition, % at 25 µM. hit rate 0.27% among 330,000;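 active means about 74% or more and at least 40 points above the plate without the antibiotic, then above 30% in a dose series; inconclusive means first-round hits that could not be retested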;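 further: growth measured after seven days incubation then overnight dye step; 0% = bacteria only wells and 100% = bacteria with antibiotic; twin plates without the antibiotic show which effects depend on it; some results filed as inactive read as strong as hits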
# Mtb growth = M. tuberculosis H37Rv growth inhibitors, H37Rv strain (AID 1626). M. tuberculosis H37Rv growth inhibition; higher % means a stronger effect. hit rate 0.95% among 220,000. one-dose inhibition, % at 10 µM; IC50 in µM for titrated hits;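 active means confirmed in a dose series; inconclusive means inhibition above 80% but not taken into the dose series; inactive means below 80% or under 30% at every dose of the series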;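 further: bacteria incubated seven days before Alamar blue readout; 0% = bacteria only wells and 100% = bacteria with antibiotic wells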
# Arbovirus inh = blocks arbovirus infection; arbovirus infection cell-based antiviral screen; inhibition, % at 10 µM; hit rate 0.37% among 200,000;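 active means inhibition from about 30%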;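 further: bluetongue infection of BSR cells; cell survival read as ATP light after 72 h; 0% = infected wells without compound and 100% = uninfected wells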
# YopH PTP inh = blocks Yersinia enterocolitica YopH tyrosine phosphatase; fluorescence Ex485/Em525; inhibition, %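 (about 10 µM by stock and volumes)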; hit rate 0.16% among 140,000;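 active means inhibition of 50% or more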;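 further: controls were vehicle for no effect and minimum signal wells for full effect; inactives centre near -20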
# RecA intein inh = Mtb RecA intein splicing inhibition | cell-free RecA intein splicing, fluorescence | inhibition, %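 (about 9 µM by stock and volumes)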 | hit rate 0.75% among 290,000; in the data active means inhibition above about 30%; inconclusive means no clear call, values can overlap the other calls;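 further: 0% = vehicle wells and 100% = reference inhibitor control wells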
# Target sequence (P9WHJ3 whole entry, looked up): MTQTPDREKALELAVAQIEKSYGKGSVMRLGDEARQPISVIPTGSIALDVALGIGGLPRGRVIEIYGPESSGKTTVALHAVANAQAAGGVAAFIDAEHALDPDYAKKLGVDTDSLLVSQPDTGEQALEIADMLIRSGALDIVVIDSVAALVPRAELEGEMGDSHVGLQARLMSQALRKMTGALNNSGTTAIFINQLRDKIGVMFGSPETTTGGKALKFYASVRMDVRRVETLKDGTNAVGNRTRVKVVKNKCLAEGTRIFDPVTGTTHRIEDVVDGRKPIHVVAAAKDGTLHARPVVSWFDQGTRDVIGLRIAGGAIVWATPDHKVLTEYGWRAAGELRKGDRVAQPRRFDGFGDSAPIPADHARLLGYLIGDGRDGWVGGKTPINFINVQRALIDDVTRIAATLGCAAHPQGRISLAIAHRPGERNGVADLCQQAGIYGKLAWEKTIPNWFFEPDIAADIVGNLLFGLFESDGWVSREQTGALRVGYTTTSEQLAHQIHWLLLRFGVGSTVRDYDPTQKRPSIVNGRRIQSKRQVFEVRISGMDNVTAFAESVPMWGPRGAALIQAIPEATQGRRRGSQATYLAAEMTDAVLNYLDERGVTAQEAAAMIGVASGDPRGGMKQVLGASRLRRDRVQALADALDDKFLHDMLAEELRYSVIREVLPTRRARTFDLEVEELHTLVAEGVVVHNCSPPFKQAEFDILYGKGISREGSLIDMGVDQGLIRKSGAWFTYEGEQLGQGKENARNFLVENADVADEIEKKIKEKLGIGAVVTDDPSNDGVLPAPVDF
# Arbovirus inh repeat = second read-out of Arbovirus inh, no call of its own (marks repeat the call); inhibition, %; measured here: 10K subset replicate screen; many hits read low in the repeat;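 first of two repeat runs on a subset; 0% = infected and 100% = uninfected wells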
# Starred values were filed as active, the others as inactive; ? = inconclusive; / = no result given.
SMILES,Mtb betalactam,Mtb growth,Arbovirus inh,YopH PTP inh,RecA intein inh,others
CN1CCN(c2nc(-c3ccccn3)nc3ccccc23)CC1,92,11%,-7,-22,-1.1,
CC1(C)CC[C@]2(C(=O)O)CC[C@]3(C)C(=CCC4[C@@]5(C)CC[C@H](O)C(C)(C)C5[C@H](O)C[C@]43C)[C@@H]2C1 (stereo partly drawn),7,3%,/,/,6.8,
O=C(c1cccc(N2C(=O)C3CC=CCC3C2=O)c1)N1CCCc2ccccc21 (stereo not drawn),-1,-9%,2,/,0.1,
COc1ccc(C2c3ccc4ccccc4c3Oc3ncn(CCN4CCOCC4)c(=N)c32)cc1OC (stereo not drawn),6,1%,/,/,4.9,
COC(=O)c1c(NS(=O)(=O)c2ccccc2)csc1C,7,15%,/,/,/,
Cc1cc(C)nc(N(C#N)CC(=O)Nc2ccccc2)n1,4,6%,3,-54,-0.2,
O=[N+]([O-])c1cc(C(F)(F)F)ccc1NCC1CCCO1 (stereo not drawn),-3,/,/,/,-0.3,
CC(=O)N1CCN(C(=S)NCc2ccccc2)CC1,-3,1%,6,-4,4.6,
COc1ccc(CCNC(=O)c2cccc(Br)c2)cc1OC,-1,/,/,/,1.9,
COc1c(Cl)cc(Cl)cc1/C=N/NC(=O)c1nnn(-c2nonc2N)c1CN1CCC(C)CC1,5,/,/,/,1.7,

# Continued; the last four above are carried over.
SMILES,Mtb betalactam,Mtb growth,Arbovirus inh,YopH PTP inh,RecA intein inh,others
O=[N+]([O-])c1cc(C(F)(F)F)ccc1NCC1CCCO1 (stereo not drawn),-3,/,/,/,-0.3,
CC(=O)N1CCN(C(=S)NCc2ccccc2)CC1,-3,1%,6,-4,4.6,
COc1ccc(CCNC(=O)c2cccc(Br)c2)cc1OC,-1,/,/,/,1.9,
COc1c(Cl)cc(Cl)cc1/C=N/NC(=O)c1nnn(-c2nonc2N)c1CN1CCC(C)CC1,5,/,/,/,1.7,
Cc1ccccc1NC(=O)Nc1cnccn1,-4,/,/,/,1.7,
O=C(Cc1ccsc1)NCC(=O)Nc1ccc(F)c(F)c1,-15,/,/,/,-1.6,
COc1cccc(-n2cc(CN(C)Cc3nc(Cc4cccc(F)c4)no3)cn2)c1,3,5%,-3,/,2.0,
COc1cc2c(cc1OC)CN(S(=O)(=O)c1ccc3c(c1)OCCO3)CC2,3,-5%,10,-24,/,
COc1cccc(-c2csc(N3CCN(CC(=O)Nc4ccc5c(c4)OCO5)CC3)n2)c1,-9,49%,-7,-34,-0.3,
O=C(C1CC(=O)N(c2ccccc2)C1)N1CCCCCC1 (stereo not drawn),-3,/,/,/,-1.7,
CCN(CC)c1ccc(/C=C/c2nc3ccccc3s2)cc1,98,11%,0,-42,-45,
COc1ccc(-n2c(SCC(N)=O)nnc2-c2ccccc2F)cc1,-8,8%,-2,-28,/,
Cc1ccc(N(CC(O)CN2CCCC2)S(=O)(=O)c2ccc(C)cc2)cc1 (stereo not drawn),-1,/,-7,-34,1.5,
CSc1ccccc1-n1nnnc1SCC(=O)Nc1ccccc1C,-10,-7%,-2,-30,3.5,
COc1ccc(NC(=O)Nc2cccc(C)n2)cc1,-8,1%,-8,-31,3.8,Arbovirus inh repeat=2
FC(F)(F)c1nnc2ccc(N3CCCCC3)nn12,4,/,/,/,-1.4,
CCCc1nc(C)cc(N2CCN(c3ccccc3)CC2)n1,5,/,/,/,2.0,
Oc1ccc(Br)cc1/C=N/n1c(-c2ccccc2)n[nH]c1=S,-14,/,/,/,6.2,
O=C(Cn1cnc2ccccc2c1=O)NCc1cccs1,-11,-3%,0,/,/,
Cc1cc(C)c(OC2(c3ccccc3)OC(=O)c3ccccc32)c(C)c1 (stereo not drawn),-4,1%,-17,-32,11,
Cc1nn(CC(=O)Nc2ccc(Cl)c(S(=O)(=O)N(C)C)c2)c(C)c1[N+](=O)[O-],-7,8%,2,1,-7.2,
COCCNC(=O)c1cnn2c(C(F)F)cc(-c3ccccc3)nc12,2,-4%,-6,/,-15,
Cc1cc(C)c2cc(C(=O)N3CCC(Cc4ccccc4)CC3)[nH]c2c1,7,10%,/,/,-0.1,
O=C(NCc1ccc(F)cc1)C(=O)NCC(c1ccco1)N1CCOCC1 (stereo not drawn),2,7%,3,/,-3.5,
CCOc1ccc(C(C)=O)cc1CN1C(=O)NC2(CCCCCC2)C1=O,8,/,/,/,-1.3,
COc1ccccc1-c1nnc(NC(=O)OCC(C)C)s1,-5,5%,16,-31,1.0,
Cc1cc(N2CCN(C)CC2)nc2ccc(NC(=O)c3ccc4c(c3)OCO4)cc12,97,70%,-20,-26,/,
S=C(NCC(c1ccco1)N1CCCC1)Nc1ccccc1 (stereo not drawn),-1,-4%,13,/,1.9,
COCCNC(=O)[C@@]1(Cc2ccccc2)C=C[C@@H](C)N1C(C)=O,-14,-7%,-6,-37,-1.1,
C/C(CC(=O)Nc1ccc(C)c(Cl)c1)=N\NC(=O)Cc1cnc(N)s1,89,55%,-8,/,-1.5,
Cc1cc(S(=O)(=O)N2CCN=C2c2ccccc2)ccc1F,-15,-11%,5,-8,1.1,
CCOC(=O)N1CCN(C(=O)c2ccc3nc(-c4ccccc4)c(-c4ccccc4)nc3c2)CC1,62,/,/,/,-0.7,
O=C(CC(=O)N/N=C/c1c(F)cccc1Cl)NCCc1ccccc1,-1,/,/,/,1.3,
Cc1ccc(NC(=O)COC(=O)CN2C(=O)C3CCCCC3C2=O)cc1S(=O)(=O)N1CCOCC1 (stereo not drawn),-3,0%,-6,-18,-0.8,
C=CCn1c(SCC(=O)c2cccs2)nc2sc(C)cc2c1=O,-5,0%,3,-23,1.7,
C=CCN1C(=O)c2ccccc2Sc2ccc(C(=O)NCC(OC)OC)cc21,-7,/,/,/,0.3,
Cc1nc2ccccc2nc1Nc1cccc(Cl)c1,89,/,/,/,1.5,
COc1ccccc1C(=O)OCC(=O)NC(C)CCc1ccccc1 (stereo not drawn),-2,/,/,/,2.3,
CC(C)CCC(O)(CCC(C)C)C(=O)NNc1ccccc1,76,?,-26,-36,-0.5,
Cc1cnnc2c1-c1nonc1CC2,-4,-13%,8,-27,5.7,
N#Cc1cc(-c2ccccc2)[nH]c1-c1nccc2ccccc12,58,-6%,/,/,-0.7,
O=C(Nc1ccc(S(=O)(=O)Nc2ncccn2)cc1)c1cccc(Br)c1,-3,/,/,/,0.7,
O=C(Cc1ccc(-c2ccccc2)cc1)NC(c1ccccc1)c1ccccc1,8,-7%,-8,-9,-1.2,
Cc1cc(C)c(S(=O)(=O)N(CC(=O)O)C2CCCCC2)c(C)c1,-9,-2%,11,-6,0.8,

# Molecules above with an NH in an aromatic ring:
SMILES,Mtb betalactam,Mtb growth,Arbovirus inh,YopH PTP inh,RecA intein inh,others
Oc1ccc(Br)cc1/C=N/n1c(-c2ccccc2)n[nH]c1=S,-14,/,/,/,6.2,
Cc1cc(C)c2cc(C(=O)N3CCC(Cc4ccccc4)CC3)[nH]c2c1,7,10%,/,/,-0.1,
N#Cc1cc(-c2ccccc2)[nH]c1-c1nccc2ccccc12,58,-6%,/,/,-0.7,

# (listing goes on)
SMILES,Mtb betalactam,Mtb growth,Arbovirus inh,YopH PTP inh,RecA intein inh,others
Cc1ccc(S(=O)(=O)N(C)c2ccc(OC(=O)c3ccc(N4CCCC4=O)cc3)cc2)cc1,1,/,/,/,1.9,
CCCN(C(=O)c1c(CC)noc1C)c1c(N)n(Cc2ccccc2)c(=O)[nH]c1=O,-7,/,/,/,0.3,
CC(=O)c1csc(COc2ccccc2)n1,1,-10%,/,/,5.4,
CC(=O)c1ccc(NC(=O)N2C3CCC2CC(O)(c2cccnc2)C3)cc1 (stereo not drawn),-10,-1%,3,/,-1.4,
CCCn1cnc2c(=O)oc3ccccc3c21,-7,-3%,15,-9,/,
COc1ccccc1C(C[N+](=O)[O-])c1c(N)n(C)c(=O)n(C)c1=O (stereo not drawn),99,41%,/,/,0.2,
O=c1nc(/C=C/c2ccc(Cl)cc2Cl)cc(C(F)(F)F)[nH]1,68,/,/,/,6.1,
COc1cc(C2C(=O)c3ccccc3C2=O)ccc1O,-2,/,/,/,-42,
Cc1noc(C)c1CCC(=O)NC1CCCN(Cc2ccc(Cl)cc2)C1 (stereo not drawn),-9,/,/,/,-0.3,
S=C(NCc1ccccc1)NCc1ccc2c(c1)OCO2,1,16%,0,-15,12,
O=c1[nH]c2ccc(S(=O)(=O)N3CCN(C4CCCCC4)CC3)cc2[nH]c1=O,-7,-6%,14,-29,-1.8,
COc1ccc(S(=O)(=O)N(C)c2ccc(C(=O)NCC3CCCO3)cc2)cc1OC (stereo not drawn),1,/,/,/,-1.7,
COc1ccc(C(=O)N/N=C\c2coc3ccccc3c2=O)cc1,42,-8%,/,/,17,
Cc1c(N/C=C/C(=O)C(F)(F)F)c(=O)n(-c2ccccc2)n1C,-2,-6%,1,/,-5.7,
Cc1ccc(-c2nnc(N3CCCCC3)c3ccccc23)cc1S(=O)(=O)N(C)C,11,5%,7,-41,2.1,
C/C=C(\C)C(=O)OC1C(C)=C2C(C1OC(=O)CCCCC)C(C)(OC(C)=O)CC(OC(=O)CCC)C1(O)C2OC(=O)C1(C)O (stereo not drawn),84,49%,/,/,2.4,
COc1ccc(CNC(=O)c2ccc(CS(=O)(=O)Cc3ccccc3F)o2)cc1,-5,-1%,4,/,-3.5,
COc1cc(CNc2ncn[nH]2)ccc1OCC(=O)NC(C)(C)C,-4,7%,2,/,0.3,
O=C(CSc1nnc(-c2ccccc2)n1-c1ccc(Cl)cc1)N/N=C/c1ccccc1C(=O)O,-7,1%,/,/,1.8,
C/C(=N\NC(N)=S)C1C2C3CC4C5CC(C42)C1C53 (stereo not drawn),53,33%,-29,/,1.7,
Cc1c([N+](=O)[O-])cc(C(=O)Oc2ccc(Br)cc2C(=S)N2CCCCC2)cc1[N+](=O)[O-],-7,0%,3,-17,6.0,
O=C(c1ccccc1NS(=O)(=O)c1ccc(Br)s1)N1CCOCC1,-4,-3%,16,12,/,
CC(C)[C@H](NC(N)=O)C(=O)Nc1cccc(S(=O)(=O)N2CCOCC2)c1,10,1%,1,/,-0.4,
CCc1sc(C(=O)Nc2cccc(C(C)=O)c2)cc1C,5,16%,4,-15,4.1,
CC(C)c1ccc(S(=O)(=O)N(C)C2(C)CCS(=O)(=O)C2)cc1 (stereo not drawn),-5,/,/,/,-2.5,
Cc1cccc(N2C(=O)CC(N3CCN(c4cccc(C(F)(F)F)c4)CC3)C2=O)c1 (stereo not drawn),2,-1%,0,-19,2.1,Arbovirus inh repeat=5
CC(=O)N1CCN(c2ccc(NC(=O)c3ccc(Br)o3)cc2Cl)CC1,59,36%,4,/,-1.9,
Cc1ccc(S(=O)(=O)CCC(=O)Oc2ccc3c(C)cc(=O)oc3c2)cc1,-6,/,/,/,-5.4,
CNC(=O)COC(=O)c1ccc(-c2nc3ccccc3s2)s1,99,?,-4,-15,-4.5,
CCNC(=O)CC1C(=O)N(c2ccc(F)cc2)C(=O)N1CCc1ccc(OC)cc1 (stereo not drawn),/,-11%,12,-47,-1.3,
COc1ccccc1N1C(=O)Cc2ccccc2C1=O,-3,/,/,/,31*,
Cc1cc(NC(=O)CCC(=O)N(CC(=O)NC2CCCC2)c2ccc3c(c2)OCCO3)no1,-5,3%,4,-50,-1.4,
O=[N+]([O-])c1ccc2nc(-c3ccccc3)n(OCc3ccc(Cl)cc3)c2c1,9,-1%,-11,-52,4.6,
CCS(=O)(=O)c1nc2ccccc2n1CC(=O)N1CCCCC1,4,1%,7,-3,2.7,
CN(Cc1cnccn1)C(=O)C1CCC(=O)N(CCc2ccc(Cl)cc2)C1 (stereo not drawn),1,/,/,/,-0.5,
S=C(NCc1ccco1)NCC(c1ccco1)N1CCCCC1 (stereo not drawn),-12,-2%,1,/,-3.0,
COc1ccc(NC(=O)CCNS(=O)(=O)c2ccc(Cl)c([N+](=O)[O-])c2)cc1S(N)(=O)=O,-7,/,/,/,-2.6,
COc1cc(OC)cc(C(=O)OCCCOC(=O)c2cc(OC)cc(OC)c2)c1,3,/,/,/,-0.2,
CCOC(=O)C1(CCOc2ccccc2)CCN(C(=O)c2ccc(-n3cccn3)cc2)CC1,6,27µM*,-18,/,13,
O=C(Nc1cccc(Cl)c1)c1ccc(NCCCN2CCOCC2)c([N+](=O)[O-])c1,70,8%,-6,7,-5.1,
COc1ccc(/C=N/Nc2nccnc2Cl)cc1,8,7%,-10,-27,0.9,
COC(=O)c1c(NC(=S)NNS(=O)(=O)c2ccc(OC)cc2OC)sc2c1CCCCCC2,-8,/,/,/,-0.8,
Cc1cc(C(=O)NN=C2CCCCCC2)c(C)o1,-1,-7%,/,/,0.3,

# These rows are one share of the data; count on the stated rates, not on these rows.
